Source: PubChem BioAssay
Vaccinia stage: blocks a specific stage of Vaccinia orthopoxvirus infection. Vaccinia-infected cells, mCherry/Venus stage reporter fluorescence; active compounds read low; some inactives read as strong as hits. activity change (mCherry), % (no concentration beside the values). hit rate 0.01% among 89,000;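 active = mCherry past -33% and 40 or more points under the early reporter, replicates agreeing; inconclusive = past -33% without that gap or agreement; tested in A549 cells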;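 also: scaled between vehicle wells and reference inhibitor wells; 23 nL library stock went into each well; one replicate is shown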
Vaccinia stage Venus: second read-out of Vaccinia stage, no call of its own (marks repeat the call); activity change (Venus), %; measured here: Venus reporter, other viral stage;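 negative = less Venus signal; first of two replicates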
Starred values were filed as active, the others as inactive; ? = inconclusive; . = not tested or not shown.

SMILES	Vaccinia stage	Vaccinia stage Venus
C[C@H]1CN([C@@H](C)CO)C(=O)c2cc(NS(=O)(=O)c3ccc(Cl)cc3)ccc2O[C@@H]1CN(C)Cc1ccc(C(=O)O)cc1	26	8
C[C@H]1CN([C@@H](C)CO)C(=O)Cc2cc(NC(=O)CCN3CCOCC3)ccc2O[C@H]1CN(C)Cc1ccc2c(c1)OCO2	-8	1
O=C(C[C@H]1C[C@H]2c3cc(NC(=O)NC4CCCC4)ccc3O[C@H]2[C@@H](CO)O1)NC1CCCC1	6	6
O=C(C[C@H]1CC[C@@H]2[C@H](COC[C@@H](O)CN2Cc2ccccc2)O1)N[C@@H]1CCN(Cc2ccccc2)C1	-18	-9
C[C@@H]1CN([C@@H](C)CO)C(=O)c2cccc(NS(=O)(=O)c3cccs3)c2O[C@H]1CN(C)C	18	5
CCCC(=O)N1CC2(CN(S(C)(=O)=O)C2)c2c([nH]c3cc(OC)ccc23)[C@@H]1CO	13	1
C[C@@H]1CCCCO[C@@H](CN(C)Cc2ccccc2)[C@H](C)CN([C@@H](C)CO)C(=O)c2cc(NC(=O)Nc3ccc4c(c3)OCO4)ccc2O1	?	.
COc1ccc2c3c([nH]c2c1)[C@@H](CO)N(C(=O)c1ccccn1)CC31CN(C(=O)C2CC2)C1	9	3
O=C(N[C@H]1CC[C@@H](CC(=O)N2CCCCC2)O[C@H]1CO)c1cccc(F)c1	-3	-3
COc1ccc(-c2ccc([C@@H]3[C@H]4CN(C(=O)c5ccc6c(c5)OCO6)CCCCN4[C@H]3CO)cc2)cc1	?	.
C[C@@H]1CN([C@H](C)CO)C(=O)c2cccc(NC(=O)c3ccncc3)c2O[C@H]1CN(C)Cc1ccc(-c2ccccc2)cc1	?	.
C[C@@H]1CCCCO[C@@H](CN(C)C(=O)Nc2ccc(F)cc2)[C@H](C)CN([C@H](C)CO)C(=O)c2cc(NC(=O)CCC(F)(F)F)ccc2O1	8	4
CCCN(C)C[C@H]1Oc2ncc(-c3ccccc3)cc2C(=O)N([C@@H](C)CO)C[C@@H]1C	-20	-27
CCCC#Cc1ccc([C@H]2[C@H](CO)N3CCCCN(S(=O)(=O)Cc4ccccc4)C[C@@H]23)cc1	?	.
COC(=O)C[C@@H]1CC[C@H]2[C@H](COc3ccc(NC(=O)c4ccc(F)cc4)cc3C(=O)N2C)O1	-1	3
C[C@@H]1CN([C@@H](C)CO)C(=O)c2cc(NC(=O)NC3CCCCC3)ccc2O[C@@H](C)CCCCO[C@H]1CN(C)Cc1ccncc1	-27	-18
CO[C@H]1CC[C@@H]2CCN(C)C(=O)[C@H](C)[C@H](OC)CN(C)C(=O)c3cccc(C#N)c3OC[C@H]1O2	6	-1
C[C@H]1CN([C@@H](C)CO)C(=O)c2cccc(NC(=O)c3nc4ccccc4s3)c2O[C@H]1CN(C)C(=O)Nc1ccc(F)cc1	-18	-6
CCC(=O)Nc1ccc2c(c1)C(=O)N(C)C[C@H](OC)[C@@H](C)CN(C(=O)CN(C)C)[C@@H](C)CO2	7	4
N#Cc1ccc(-c2ccc([C@H]3[C@H]4CNCC(=O)N4[C@H]3CO)cc2)cc1	7	6
C[C@H]1CN([C@@H](C)CO)C(=O)Cc2cc(NC(=O)Nc3ccc(C(F)(F)F)cc3)ccc2O[C@H]1CN(C)CC1CCCCC1	?	.
CCS(=O)(=O)Nc1ccc2c(c1)C(=O)N(C)[C@@H]1CC[C@@H](CC(=O)NCc3ccccc3F)O[C@@H]1CO2	-2	6
C=C1CC(/C=C/c2cc(OC)c(OC)c(OC)c2)OC1=O (stereo unspecified)	-33	-17
O=C(C[C@@H]1C[C@@H]2c3cc(NC(=O)C4CCC4)ccc3O[C@@H]2[C@@H](CO)O1)NCCc1ccccc1	-11	-10
C[C@H](CO)N1C[C@H](C)[C@H](CN(C)S(=O)(=O)c2ccc(Cl)cc2)Oc2ccc(NC(=O)Cc3ccccc3)cc2C1=O	-5	-11
COCC(=O)Nc1ccc2c(c1)[C@@H]1C[C@@H](CC(=O)N3CCc4ccccc4C3)O[C@@H](CO)[C@@H]1O2	2	6
C[C@H](CO)N1C[C@H](C)[C@@H](CN(C)S(=O)(=O)c2ccccc2)Oc2c(NC(=O)Nc3ccc(C(F)(F)F)cc3)cccc2C1=O	-20	-5
CC(=O)N(C)C[C@H]1Oc2ncc(C#CCc3ccccc3)cc2C(=O)N([C@H](C)CO)C[C@H]1C	13	8
COc1ccc(NC(=O)Nc2ccc3c(c2)C(=O)N([C@H](C)CO)C[C@H](C)[C@H](CN(C)Cc2ccncc2)O3)cc1	8	-2
Cc1noc(C)c1NC(=O)Nc1ccc2c(c1)CC(=O)N([C@@H](C)CO)C[C@@H](C)[C@H](CN(C)S(=O)(=O)c1ccccc1)O2	8	-1
CCS(=O)(=O)Nc1ccc2c(c1)C(=O)N(C)C[C@@H](OC)[C@H](C)CN(CC1CCCCC1)[C@H](C)CO2	-18	-7
C[C@@H]1CCCCO[C@H](CN(C)C(=O)C2CCCCC2)[C@@H](C)CN([C@H](C)CO)C(=O)c2cc(NC(=O)Nc3ccc(F)cc3)ccc2O1	11	2
COc1cccc(CNC(=O)C[C@H]2CC[C@H](NC(C)=O)[C@H](CO)O2)c1	11	9
COc1cccc(S(=O)(=O)Nc2ccc3c(c2)[C@H]2C[C@@H](CC(=O)N(C)C)O[C@@H](CO)[C@H]2O3)c1	12	12
CO[C@@H]1CN(C)C(=O)c2cc(NS(=O)(=O)c3ccccc3C)ccc2OC[C@@H](C)N(S(C)(=O)=O)C[C@@H]1C	22	14
Cc1ccc(S(=O)(=O)N(C)C[C@@H]2Oc3ccc(NS(=O)(=O)c4ccccc4)cc3C(=O)N([C@@H](C)CO)C[C@@H]2C)cc1	-18	-19
C[C@H](CO)N1C[C@H](C)[C@H](CN(C)S(=O)(=O)c2cccs2)Oc2ccc(N(C)C)cc2C1=O	-1	0
CC(C)CC#Cc1cnc2c(c1)C(=O)N([C@H](C)CO)C[C@H](C)[C@@H](CN(C)Cc1ccccc1C(=O)O)O2	3	-3
C[C@H]1CN([C@@H](C)CO)C(=O)Cc2cc(NC(=O)Nc3ccc4c(c3)OCO4)ccc2O[C@@H]1CN(C)CC1CC1	-7	-11
C[C@H]1CCCCO[C@@H](CN(C)C)[C@@H](C)CN([C@@H](C)CO)C(=O)c2cc(NC(=O)NC3CCCCC3)ccc2O1	4	1
C[C@H](CO)N1C[C@H](C)[C@@H](CN(C)C(=O)C2CC2)OCc2ccccc2-c2ccccc2C1=O	13	2
CCS(=O)(=O)Nc1ccc2c(c1)C(=O)N(C)[C@H]1CC[C@@H](CC(=O)N3CCOCC3)O[C@@H]1CO2	3	1
O=C(C[C@@H]1CC[C@H]2[C@@H](COC[C@H](O)CN2C(=O)c2ccc3c(c2)OCO3)O1)NCCN1CCCCC1	0	13
CC(=O)N(C)C[C@@H]1Oc2ncc(C#Cc3cccnc3)cc2C(=O)N([C@H](C)CO)C[C@@H]1C	10	2
C[C@@H]1CCCCO[C@@H](CN(C)S(=O)(=O)c2ccccc2)[C@@H](C)CN([C@@H](C)CO)C(=O)c2cc(NC(=O)Nc3cccc4ccccc34)ccc2O1	11	4
COc1ccc(NC(=O)Nc2cccc3c2O[C@H](CN(C)C(=O)Nc2ccc4c(c2)OCO4)[C@@H](C)CN([C@@H](C)CO)C3=O)cc1	13	3
O=C(C[C@@H]1CC[C@H]2[C@@H](COC[C@@H](O)CN2C(=O)Nc2cc(Cl)cc(Cl)c2)O1)NCC1CCCCC1	?	.
COc1cccc(-c2cnc3c(c2)C(=O)N([C@H](C)CO)C[C@@H](C)[C@@H](CN(C)C(=O)CN(C)C)O3)c1	9	6
C[C@@H]1CCCCO[C@H](CN(C)C(=O)Nc2ccc3c(c2)OCO3)[C@H](C)CN([C@@H](C)CO)C(=O)c2cc(NC(=O)Nc3ccc4c(c3)OCO4)ccc2O1	-6	-12
COCC(=O)N1C[C@H](C)[C@@H](OC)CN(C)C(=O)c2ccc(NC(=O)c3cc(C)on3)cc2OC[C@H]1C	13	9
CC=Cc1ccc2n(c1=O)C[C@@H]1N[C@H]2[C@H](C(=O)NCc2ccc3c(c2)OCO3)[C@H]1CO (mixture of isomers)	9	10
COc1ccc(S(=O)(=O)N2CCCCN3[C@H](CO)[C@@H](c4ccc(C5=CCCC5)cc4)[C@@H]3C2)cc1	7	5
C[C@H](CO)N1C[C@H](C)[C@@H](CN(C)C(=O)Cc2ccccn2)Oc2cc(-c3cccc(C(=O)N(C)C)c3)ccc2S1(=O)=O	-2	0
C[C@@H]1CN([C@H](C)CO)C(=O)CCCn2nncc2CO[C@@H]1CN(C)C(=O)Nc1ccc(C(C)(C)C)cc1	4	8
C[C@H](O)C#Cc1ccc([C@@H]2[C@@H](CO)N3CCCCN(C(=O)c4ccc(F)cc4)C[C@H]23)cc1	25	0
COc1cccc(S(=O)(=O)N[C@@H]2CC[C@H](CC(=O)NCc3ccc(Cl)cc3)O[C@@H]2CO)c1	-11	-5
CO[C@@H]1CC[C@H]2CCN(C)C(=O)[C@@H](C)CN(C)C(=O)c3cc(C#N)ccc3OC[C@@H]1O2	2	-3
CO[C@H]1CN(C)C(=O)c2ccc(NC(=O)NC(C)C)cc2OC[C@H](C)N(C(=O)C2CCC2)C[C@@H]1C	19	22
COc1cccc(CN2[C@@H]3CN(C(=O)c4cccnc4)c4ccccc4[C@@H]3[C@@H]2CO)c1	-3	8
COc1ccc(NC(=O)Nc2ccc3c(c2)[C@@H]2C[C@@H](CC(=O)NCc4ccncc4)O[C@@H](CO)[C@@H]2O3)cc1	2	8
Further entries follow.
SMILES	Vaccinia stage	Vaccinia stage Venus
C[C@H]1CN([C@@H](C)CO)C(=O)c2c(c3ccccc3n2C)-c2ccccc2CO[C@H]1CN(C)C(=O)[C@@H](Cc1ccccc1)N(C)C	?	.
COc1ccccc1NC(=O)N1C[C@H](O)COC[C@@H]2O[C@@H](CC(=O)N3CCC(Cc4ccccc4)CC3)CC[C@H]21	-14	-18
C[C@@H]1CN([C@H](C)CO)C(=O)c2cc(NC(=O)CCCCCC(=O)Nc3ccccc3N)ccc2O[C@@H]1CN(C)S(=O)(=O)c1ccc(Cl)cc1	9	1
CC(C)NC(=O)Nc1ccc2c(c1)C(=O)N([C@H](C)CO)C[C@H](C)[C@@H](CN(C)C)OCCCC[C@@H](C)O2	15	6
O=C(C1CCCC1)N1C[C@@H]2[C@H](c3ccccc31)[C@@H](CO)N2C(=O)Cc1ccccn1	-1	18
CN1c2ccc(-c3ccc(F)cc3)cc2[C@@H]2[C@@H](CCN2C(=O)Cc2cccnc2)[C@@H]1CO	-18	-13
C[C@@H]1CN([C@@H](C)CO)C(=O)c2cc(NC(=O)Nc3ccc(F)cc3)ccc2O[C@H]1CN(C)Cc1ccncc1	-6	-4
O=C(C[C@H]1CC[C@H](NS(=O)(=O)c2ccc(F)cc2)[C@@H](CO)O1)NC1CCCCC1	-4	0
C[C@H]1CN([C@@H](C)CO)S(=O)(=O)c2ccc(-c3ccncc3)cc2O[C@H]1CN(C)C(=O)CC1CC1	6	5
C[C@@H]1CN([C@@H](C)CO)S(=O)(=O)c2ccc(C3=CCCCC3)cc2O[C@@H]1CN(C)S(=O)(=O)c1cn(C)cn1	-24	-22
C[C@@H]1CN([C@H](C)CO)C(=O)c2cc(NC(=O)NC3CCCCC3)ccc2O[C@@H]1CN(C)S(=O)(=O)c1ccc(F)cc1	-3	-7
O=C(C[C@@H]1CC[C@H]2[C@@H](COC[C@H](O)CN2CC2CCCC2)O1)NCC1CC1	1	-3
CS(=O)(=O)N1CC(=O)N2[C@H](C1)[C@@H](c1ccc(C#Cc3ccc(F)cc3)cc1)[C@@H]2CO	-17	-5
C[C@@H]1CN([C@@H](C)CO)C(=O)c2cc(C#CC(C)(C)O)cnc2O[C@@H]1CN(C)Cc1ccccn1	11	11

Not all compounds are listed; count on the stated rates, not on these rows.
